VDR inh: Inhibitors of the vitamin D receptor (VDR): qHTS | Vitamin D3 receptor (Homo sapiens), P11473 | VDR-SRC2-3 peptide fluorescence polarization, 2 h | Potency, µM, for inactives: max response, negative = inhibition, actives largely listed as inhibitors | 400,000 tested, 0.93% active | AID 504847, 2011; active = well fitted inhibition curve with a large enough effect; inconclusive = small, poorly fitted or top-dose-only effect, or another doubt; inactive = no such curve, though single readings can be large or run the other way; note: series mostly up to about 120 µM
Target sequence (P11473 whole entry, looked up): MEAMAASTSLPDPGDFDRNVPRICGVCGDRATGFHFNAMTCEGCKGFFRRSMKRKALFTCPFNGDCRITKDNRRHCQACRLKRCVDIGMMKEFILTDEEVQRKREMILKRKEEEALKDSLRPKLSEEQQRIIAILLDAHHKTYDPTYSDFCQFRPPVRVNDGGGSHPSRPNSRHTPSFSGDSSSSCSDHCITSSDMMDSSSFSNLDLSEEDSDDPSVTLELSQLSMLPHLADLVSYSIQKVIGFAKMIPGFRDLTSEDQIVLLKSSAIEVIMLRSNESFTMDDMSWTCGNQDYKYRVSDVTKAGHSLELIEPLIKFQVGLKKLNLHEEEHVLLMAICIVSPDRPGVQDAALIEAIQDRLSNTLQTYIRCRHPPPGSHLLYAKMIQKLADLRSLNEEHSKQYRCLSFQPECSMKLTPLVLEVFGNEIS
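FP read-out; VDR + SRC2-3 coactivator peptide; 23 nl compound by pintool; 2 h RT incubation; reagents held at 4 deg C, protected from light.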
Active calls of the source: *; ? = inconclusive; & = joins results of further samples. % is set by controls: 0 for no effect and ±100 for the full control effect; potency is the fitted concentration of half-maximal effect. Only part of the results is shown; the hit share may differ from the screen's.

VDR inh	Molecule
7%	Cc1ccc(S(=O)(=O)N2CCCC(C(=O)Nc3cccnc3)C2)cc1 (stereo not drawn)
-6%	COc1ccc(C(CNC(=O)Cc2ccc3ccccc3c2)N(C)C)cc1 (stereo not drawn)
7%	O=C(CSc1ncn[nH]1)OCN1C(=O)c2ccccc2C1=O
-3%	Cc1ccccc1C(=O)c1c[nH]c(C(=O)NCC2CCCO2)c1 (stereo not drawn)
19%	O=C(C1=COCCO1)N1CCN(C(c2ccccc2)c2ccccc2)CC1
-6%	COCCCNC(=O)CS(=O)(=O)Cc1nc(-c2cccc(OC)c2)oc1C
-1%	Cc1cc2ccccc2n2c(SCC(=O)N3CCc4ccccc4C3)nnc12
-7%	CCOCCCNS(=O)(=O)c1cc2[nH]c3c(c2cc1C)C(=O)CC(C)(C)C3
0%	Cc1ccc(S(=O)(=O)CCc2nnc(NC(=O)c3cnccn3)s2)cc1
-4%	COc1ccccc1C(=O)OCC(=O)Nc1cc(S(=O)(=O)N2CCOCC2)ccc1N1CCCC1
32µM*	COc1ccc(OC)c(C2CC(=O)N3CN(c4cccc(Cl)c4C)CSC3=C2C#N)c1 (stereo not drawn)
-10%	CCCCC(=O)N(Cc1ccc(F)cc1)C1CCS(=O)(=O)C1 (stereo not drawn)
11%	Cc1ccc(CNC(=O)Nc2ccc(F)cc2F)n1C
28%	CC1=C(c2ccccc2)SC2=NCCN21
-14%	COc1ccc(-c2csc(NC3OC(=O)c4ccccc43)n2)cc1 (stereo not drawn)
-4%	COc1cc(OC)c(S(=O)(=O)N2CCCCC2)cc1S(=O)(=O)N1CCCCC1
6%	O=C(Nc1ccc(C(F)(F)F)cc1)c1cc(S(=O)(=O)NC2CCCCC2)ccc1F
-6%	Cc1nnc(NC(=O)Nc2ccc(Cl)c(Cl)c2)s1
-8%	COc1cc(Cl)c(C)cc1NC(=O)Cn1cnc2sc(C)c(S(=O)(=O)N3CCCCC3)c2c1=O
-3%&-8%	COc1cc(CCN2C(=O)N[C@@H](CCc3ccccc3)C(C(C)=O)=C2C)cc(OC)c1OC
4%	COc1cc(SC)ccc1C(=O)NNC(=O)c1cc(C)oc1C
-21%	S=C(NCC1COc2ccccc2O1)Nc1ccc(Br)cc1 (stereo not drawn)
16%	Nc1nc(SCC(=O)N2CCOCC2)[nH]c(=O)c1-c1ccccc1
11%	COc1ccc(OCCn2cc(C(=O)c3ccco3)c3ccccc32)cc1
8%	CN(CCc1nc2ccc(Cl)cc2[nH]1)Cc1nc(CC2CC2)no1
-26%	CCOCCCNC(=O)C(NC(=O)Cc1c[nH]c2ccccc12)c1ccccc1 (stereo not drawn)
-3%	Cc1cc(/C=c2\sc3nc4ccccc4n3c2=O)c(C)n1-c1ccc(C(=O)O)cc1
-9%	CCOc1ccc(NC(=O)N(Cc2cn(CC)c3ccccc23)C2CCCCCC2)cc1
17%	Cc1cccc(N2CCN(C(=O)c3cccc(-n4c(C)nc5cccnc54)c3)CC2)c1C
6%	O=C(COC(=O)Cn1nnc2ccccc21)NC1CCCC1
6%	C(=N\Nc1ccc2nncn2n1)/c1ccccn1
20%	COC(=O)Cn1nnc(N2CCOCC2)n1
13%	O=C(NCCCN1CCOCC1)c1ccc2c(c1)N(Cc1cccc(Cl)c1)C(=O)c1ccccc1S2
-4%	O=C(COc1ccc(C(=S)N2CCOCC2)cc1Cl)Nc1ccccc1Cl
?	COc1ccccc1N1CCN(C(=O)CSc2nc3ccccc3nc2N2CCC(C)CC2)CC1
-2%	COc1ccc(CN2CCN(Cc3ccc(C(F)(F)F)cc3)CC2)c(OC)c1
-9%	CCOC(=O)C1CCN(C(=O)c2ccccc2Oc2ccccc2)CC1
-30%	Cc1oc2cc(OCc3cnn(-c4ccccc4)c3)ccc2c(=O)c1Oc1ccccc1F
?	CN1C(=O)C(C(=O)NC(C)(C)C)C2c3ccccc3OC13CCCCC23 (stereo not drawn)
-12%	Cc1cc(CN(C)C(=O)CCc2nnc(Cc3cccc(C(F)(F)F)c3)o2)on1
-8%	COc1ccc(CN2C(=NC(=O)CCc3ccccc3)SC3CS(=O)(=O)CC32)cc1 (stereo not drawn)
-16%	Cc1ccc(S(=O)(=O)N2CCN(CC(=O)N/N=C\c3ccncc3)CC2)cc1
5%	Cc1oc(-c2ccccc2F)nc1CN1CCC(C(=O)NCc2ccco2)CC1
13%	S=c1[nH]nc(-c2ccncc2)n1/N=C/c1ccccc1
1%	Cc1ccc(NC(=O)c2ccc3nccnc3c2)c(C)c1
-4%	Cc1nc(SCC(=O)Nc2c(C)n(C)n(-c3ccccc3)c2=O)c(C#N)c(C)c1C
-13%	Cc1cccc(C)c1NC(=S)N(Cc1cccs1)C1CCCC1
7%	Cc1cnc(C(=O)OCC(=O)c2ccc(Cl)cc2)cn1
4%	COc1ccc(NC(=O)N2c3ccccc3CC2C)cc1OC (stereo not drawn)
-4%	CCOc1ccc(S(=O)(=O)NCC(c2ccco2)S(=O)(=O)c2ccc(F)cc2)cc1 (stereo not drawn)
7%	COCCn1c(CNC(=O)c2ccccc2C)nc2cccnc21
-22%	O=C(OCc1cnc(Cl)s1)c1ccc(Cl)cc1
-11%	CSc1cccc(NC(=O)NCc2cccc(CNC(=O)Nc3cccc(SC)c3)c2)c1
?	COc1ccc(N(C(=O)c2cccnc2)S(=O)(=O)c2cc(OC)ccc2OC)cc1
4%	Cc1onc(-c2c(F)cccc2Cl)c1C(=O)N1CCCC1
8%	COc1ccc(-c2nc(-c3ccccc3)c(-c3ccc(O)cc3)[nH]2)cc1
?	O=C1c2c([N+](=O)[O-])cc([N+](=O)[O-])cc2S(=O)N1Cc1ccccc1 (stereo not drawn)
8%	CCCCn1nnc(NC(=O)c2ccc(-c3ccccc3)cc2)n1
-5%	CCCc1cc(=O)[nH]c(SCc2nc3ccccc3s2)n1
-6%	COC(=O)c1ccc(Cn2nnc3c(=O)[nH]c(C4CCCN(S(=O)(=O)c5ccc(C)cc5)C4)nc32)cc1 (stereo not drawn)

Later entries.
VDR inh	Molecule
-17%	O=C(NC1CCCCCC1)c1ccc(=O)n(Cc2ccccc2)n1
7%	COCCn1c(=S)[nH]c2ncccc2c1=O
-15%	CCCCc1nnc(NC(=O)CSc2nc(O)c(-c3ccccc3)c(=O)[nH]2)s1
29%	O=C(NCc1ccc(F)cc1)c1cccc(S(=O)(=O)N2CCOCC2)c1
-2%	CCOc1ccccc1NC(=O)C1C2CCC3C(CCC21)C3(Cl)Cl (stereo not drawn)
2%	CN(C)CCCOC(=O)c1cc2ccccc2o1
-24%	CCOCCCN(C(=O)c1snc(C(N)=O)c1N)C(C(=O)NC1CCCC1)c1ccc(F)cc1 (stereo not drawn)
-14%	CCOC(=O)c1sc(=S)n(-c2ccccc2)c1C
-3%	O=C(O)c1ccc(Cl)c(S(=O)(=O)Nc2ccc(OCc3ccccc3)cc2)c1
16%	CC(C)CN(CC(C)C)C(=O)c1cc(S(=O)(=O)N2CCCCC2)c[nH]1
-7%	N#CC1(Nc2cccc(Cl)c2)CCCC1
-28%	CC(C)c1ccc(Nc2c(-c3ccco3)nc3ccccn23)cc1
-18%	CCOC(=O)C1CCN(c2nc3cc(OC)ccc3cc2C#N)CC1
-10%	COc1ccc(Oc2cccc(Cl)c2CNC(=O)c2ccccc2C(=O)O)cc1
-17%	CCN=c1scc(-c2ccco2)n1/N=C/c1ccc(O)cc1
-22%	COC(=O)CC1C(=O)NCCN1C(=S)Nc1cc(C)cc(C)c1 (stereo not drawn)
6%	CCc1nnc(NC(=O)[C@@H]2CCCN2C(=O)c2cccs2)s1
3%	Cn1c(N)c(C(=O)COc2ccc(Cl)cc2Cl)c(=O)n(C)c1=O
-3%	Cc1cccc(OC2(c3ccccc3)OC(=O)c3ccccc32)c1C (stereo not drawn)
?	Cc1ccc(N(Cc2cc3cccc(C)c3[nH]c2=O)S(=O)(=O)c2ccccc2)c(C)c1
-1%&-16%	O=S(=O)(NC1CCCC1)c1ccccc1Br
7%	O=C(c1cc2ccccc2o1)N1CCCCCC1
-16%	CCOc1cc(CN2CCCC(C(=O)c3cccc(C(F)(F)F)c3)C2)ccc1O (stereo not drawn)
-1%	COc1ccccc1NC(=O)CC12CC3CC(CC(Br)(C3)C1)C2
11%	O=C(NCCc1nc2ccccc2n1Cc1ccc(Cl)cc1)c1ccccc1
-7%	COc1ccc(/C=N\NS(=O)(=O)c2ccc(Cl)cc2)cc1COc1ccccc1[N+](=O)[O-]
10%	N#C/C(=C\c1ccc(F)cc1F)S(=O)(=O)c1ccccn1
-3%	COc1ccc(/C=C(/NC(=O)c2ccco2)C(=O)NCCc2ccccc2)cc1
-6%	Cc1cc(C)c2c(CC(=O)Nc3ccc(Cl)cn3)coc2c1
2%	COc1c(Cl)cc(Cl)cc1C(=O)Nc1ccc(NC(C)=O)cc1
3%	COc1ccccc1NC(=O)COc1cccc(-n2cnnn2)c1
-13%	Cn1c(NCc2ccccc2)cc(=O)n(C)c1=O
-3%	CCN(C(=O)COC(=O)c1cnc(C)cn1)C1CCS(=O)(=O)C1 (stereo not drawn)
12%	Cc1ccccc1-c1nc(-c2ccccn2)no1
-6%	COc1ccc(CC(=O)NC(C)c2ccc(Cl)c(Cl)c2)cc1S(=O)(=O)N1CCOCC1 (stereo not drawn)
-8%	Cc1nnc(SCC2=C(C(=O)O)N3C(=O)C(NC(=O)C(C)n4nc(C(F)(F)F)cc4C)C3SC2)s1 (stereo not drawn)
2%	COc1cc(-c2cc3n(C)c(C)c(CCC(=O)NC4CCCCC4)c(=O)n3n2)cc(OC)c1OC
-21%	CCCCn1c(N)c(N(CCOC)C(=O)c2c(CC)noc2C)c(=O)[nH]c1=O
-8%	COc1ccc(NS(=O)(=O)c2csc(C(N)=O)c2)cc1OC
-7%	COc1ccc(N(CC(=O)N2CCN(c3ccc(Cl)cc3)CC2)S(=O)(=O)c2c(C)n[nH]c2C)cc1
-13%	Cc1cccc(COC(=O)Nc2ccc(NC(=O)c3ccccc3Cl)cc2)c1
?	C=CCSc1nnc(COc2ccc(=O)n(-c3ccccc3)n2)n1CC
-20%	COc1ccc(-c2nc3ccccc3n3c(-c4cccc(C)c4)c4c(=O)n(C)c(=O)n(C)c4c23)cc1
-8%	COc1ccc(C2CC(O)(c3ccccc3)Oc3c(C)ccc(C(C)C)c32)cc1 (stereo not drawn)
-7%	COc1ccc(C(=O)C[n+]2ccc(N)c(C)c2C)cc1
11%	CCOc1ccccc1NC(=O)N1CCCC(c2nc3c(nnn3Cc3ccc(C)cc3)c(=O)[nH]2)C1 (stereo not drawn)
?	O=c1[nH]n(-c2ccccn2)c(=O)c2ccccc12
-17%	COc1ccc(NC(=O)CN(C)C(=O)c2cc(C3CC3)nn2-c2ccccc2)cc1
4%	Cc1cc2ccccc2c(=O)n1CC(=O)NCC(=O)N1CCCC(C)C1 (stereo not drawn)
2%	O=C(O)CCCC(=O)Nc1ccc(N2CCCC2)cc1
26%	COc1ccc(NC(=O)c2sc3nc(C)nc(N4CCN(c5ccccn5)CC4)c3c2C)cc1Cl
-10%	Cc1ccc(C)c(S(=O)(=O)N(C)C2CCS(=O)(=O)C2)c1 (stereo not drawn)
-19%	CC1CCc2sc(C(=O)N3CCN(c4ncccn4)CC3)cc2C1 (stereo not drawn)
3%	Cc1ccc(CNC(=O)CNS(=O)(=O)c2ccc(Br)s2)cc1
-17%	COc1ccc(-c2cc(-c3nc4ccccn4c3NCc3ccccc3)ccc2OC)cc1
-10%	CN(CCc1ccccc1)C(=O)c1ccc(NC(=O)Cc2cccc(NC(=O)C3CCN(C(=O)c4ccccc4)CC3)c2)cc1
-8%	Cc1ccc(S(=O)(=O)N2CCC(C(=O)NCCCN3CCCCCC3)CC2)cc1
-4%	Cc1ccccc1OCC(O)Cn1c(N2CCN(c3ccccc3)CC2)nc2c1c(=O)[nH]c(=O)n2C (stereo not drawn)
?	Cc1cc(NC(=O)c2ocnc2C)no1
6%	CO/N=C/NC(=O)c1cn(-c2ccc(F)cc2)c(=O)c2ccccc12
